Screening results deposited in PubChem BioAssay by several laboratories.
Beta cell apopt: beta cell apoptosis inhibition. 300,000 tested, 0.8% active. protection from apoptosis, % (concentration not given with the values). AID 435005. INS-1E cytokine-induced death, ATP luminescence, 48 h; percent of positive-control rescue, neutral wells zero;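 active = all replicates at 75% or more, or half of them and the mean; inconclusive = half reach 75% but not the mean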;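 also: 0% = cytokine-treated negative control wells and 100% = positive control rescue; higher means more ATP so stronger rescue from cytokine killing; wells of about 40 µL received 100 nL stock; the first replicate is given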
A1 inh: inhibitors of the anti-apoptotic protein A1, read as caspase activation. MEF A1-2A-BIM cells, Caspase-Glo 3/7 luminescence, 3 h; percent of clofoctol response, vehicle zero. caspase activation, % (concentration not given with the values). 330,000 tested, 0.066% active. AID 2462;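 active = over half of replicate activation scores above 10%, or exactly half above 10 with the replicate mean above 10; inconclusive = replicate mean below 10 yet half the replicates above 10; inactive = over half of replicates below 10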;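 also: wells of about 30 µL received 50 nL stock; many hits fall short of the cut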
LANA-H2A inh: blocks KSHV LANA binding to histone H2A/H2B; Q9QR71; inhibition, % (concentration not given with the values); cell-free LANA-H2A/H2B peptide, fluorescence polarization; AID 2629; 320,000 tested, 0.6% active; in the data active = inhibition mostly above about 10%, no sharp cut-off; inactive = mostly below about 6.7%;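 also: stock transfer was 7.5 nL into about 10 µL; 0% = median of vehicle wells and 100% = median of positive control wells; one replicate is shown; the record names a cut of 25% in any replicate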
Target sequence (Q9QR71 whole entry, looked up): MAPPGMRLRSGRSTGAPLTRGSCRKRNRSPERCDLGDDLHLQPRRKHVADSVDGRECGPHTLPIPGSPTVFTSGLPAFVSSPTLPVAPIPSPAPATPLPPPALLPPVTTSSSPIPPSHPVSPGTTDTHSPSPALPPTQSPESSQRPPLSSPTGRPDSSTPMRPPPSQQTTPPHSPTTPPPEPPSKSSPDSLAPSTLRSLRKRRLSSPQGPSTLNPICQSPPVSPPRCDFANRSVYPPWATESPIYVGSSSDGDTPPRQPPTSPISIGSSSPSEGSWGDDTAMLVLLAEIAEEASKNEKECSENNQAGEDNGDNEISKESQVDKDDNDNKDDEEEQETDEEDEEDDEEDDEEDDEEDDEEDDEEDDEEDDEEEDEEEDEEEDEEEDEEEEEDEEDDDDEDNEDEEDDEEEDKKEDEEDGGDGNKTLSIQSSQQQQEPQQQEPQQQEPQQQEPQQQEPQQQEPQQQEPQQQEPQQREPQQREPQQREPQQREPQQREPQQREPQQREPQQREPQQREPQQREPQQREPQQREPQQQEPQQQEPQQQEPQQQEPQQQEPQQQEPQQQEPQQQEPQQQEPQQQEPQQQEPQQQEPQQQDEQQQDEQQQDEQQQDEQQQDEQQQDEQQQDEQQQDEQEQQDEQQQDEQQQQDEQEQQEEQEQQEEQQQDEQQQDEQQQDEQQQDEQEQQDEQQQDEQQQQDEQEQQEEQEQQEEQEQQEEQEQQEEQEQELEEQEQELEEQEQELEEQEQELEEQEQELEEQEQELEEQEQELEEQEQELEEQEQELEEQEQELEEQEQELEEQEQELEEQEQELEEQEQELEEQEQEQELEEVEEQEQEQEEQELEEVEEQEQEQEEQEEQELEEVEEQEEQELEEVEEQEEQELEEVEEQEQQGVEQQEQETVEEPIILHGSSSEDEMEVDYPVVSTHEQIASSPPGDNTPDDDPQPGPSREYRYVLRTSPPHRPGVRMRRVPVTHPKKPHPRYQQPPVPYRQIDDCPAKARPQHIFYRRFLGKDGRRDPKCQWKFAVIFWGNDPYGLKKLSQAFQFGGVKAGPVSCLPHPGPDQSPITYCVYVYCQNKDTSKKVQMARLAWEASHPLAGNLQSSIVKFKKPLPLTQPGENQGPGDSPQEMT
MLL AF4-AF9 inh: MLL-AF4/AF9 protein interaction inhibition | P42568 | AlphaScreen, biotin-AF4 peptide binding to FLAG-AF9 | inhibition, % at 10 µM | 350,000 tested, 0.47% active;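 active = every replicate reaching a set inhibition limit, whatever the replicate mean, cut at about 25% in these data; inconclusive = mean inhibition reaches that limit but some replicates miss it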;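 also: 0% = plate neutral control median and 100% = total signal loss; the record names both 10 and 1 µM as test concentration; the first replicate is given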
Vif A3G: HIV-1 Vif–A3G interaction blockers – biochemical, TR-FRET, GST-Vif 1-94, biotin-A3G peptide, dose response retest, primary screen (AID 1117319). TR-FRET GST-Vif / biotin-A3G peptide binding; higher % means a stronger effect; test concentration not given here; strong numbers were not always called active. inhibition, %, or IC50 in µM where a hit was titrated. 260,000 tested, 0.57% active;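 active = above the screen mean plus three standard deviations and confirmed in dose response; inconclusive = results disagree or hit not tested in dose response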;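 also: Vif residues 1-94 fused to GST binding biotinylated APOBEC3G peptide 110-148; 0% = full assay without inhibitor and 100% = GST in place of GST-Vif; retest series ran down from 100 µM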
RanGTP-Impb inh: inhibitors of RanGTP-importin-beta interaction, primary screen, biochemical, FRET, CFP-Ran, YFP-importin-beta, homogeneous; cell-free CFP-Ran/YFP-importin-beta FRET ratio; inhibition, % (test concentration not listed); 300,000 tested, 1.1% active; AID 2216;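 active = most replicates above 15%; inconclusive = exactly half above 15%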;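 also: 0% = DMSO wells and 100% = Ran loaded with GDP instead of GTP; wells of about 40 µL received 100 nL stock; the first replicate is given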
Calb FLC: C. albicans growth modulation with fluconazole; C. albicans CaCi-2 (fluconazole-resistant clinical isolate) + fluconazole, Alamar Blue growth, 48 h; growth inhibition, % (test concentration not listed); 300,000 tested, 0.57% active; AID 1979;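 active = most replicates above 75%; inconclusive = exactly half above 75%; inactive = most below 75%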;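 also: all wells also contain fluconazole at 8 µg/ml as a sub-toxic cotreatment; 0% = median of DMSO wells and 100% = median of geldanamycin control wells; wells of about 8 µL received 7.5 nL stock; the first replicate is given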
T cruzi repl: blocks replication of Trypanosoma cruzi; T. cruzi beta-gal in NIH3T3, luminescence, 90 h; inhibition, % (test concentration not listed); 300,000 tested, 1.4% active; AID 1885;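 active = mean inhibition across valid replicates above about 55%, limit read from the data; inconclusive = mean below that limit but half or more replicates reach it; inactive = mean below it, under half of replicates reach it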;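 also: signal also drops with host cell toxicity which is not excluded here; 0% = plate median of DMSO wells and 100% = zero luminescence signal; higher percent means less beta-gal luminescence so fewer parasites; stock transfer was 50 nL into about 50 µL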
* marks the source's active call; other numbers are inactive results; ? = inconclusive; / = no result given; & = joins results of further samples.

SMILES	Beta cell apopt	A1 inh	LANA-H2A inh	MLL AF4-AF9 inh	Vif A3G	RanGTP-Impb inh	Calb FLC	T cruzi repl
c1cc(-c2nnc3sc(C4CCCCC4)nn23)ccn1	-9.9	0.8	2.7	/	28.8%	-0.2	-0.6	1.5
CCOc1cc(/C=N\NC(=O)OC(C)(C)C)ccc1OC(=O)c1ccco1	-8.0	0.2	8.4	2.4	26.2%	0.6	-7.9	-3.8
NC(=O)c1cc(NC(=O)COC(=O)CCCN2C(=O)c3cccc4cccc(c34)C2=O)cc(C(N)=O)c1	-7.0	-0.2	1.4	1.8	2.6%	/	/	/
CC1(C)Cc2c(sc3c2c2ncnn2c2nnc(SCC(=O)NCc4ccco4)n32)CO1	0.5	0.0	-1.0	/	-3.6%	-3.0	7.4	3.2
CNc1nc2c(c(=O)[nH]c(=O)n2C)n1CCCc1ccccc1	2.6	1.2	2.7	-2.2	2.1%	-2.6	3.9	-7.7
Cc1ccc(C(=O)N(CC(=O)NC2CCCC2)c2cccc(F)c2)s1	1.2	0.0	-5.0	-5.2	/	6.0	27.2	-3.6
CCC1CCc2sc(C(=O)NCC(c3ccc(OC)cc3)N3CCCC3)cc2C1 (stereo not given)	10.4	0.6	-0.3	1.5	/	1.7	-24.5	66.1*
CC(C)CC1Nc2ncnc(N3CCN(c4ccccc4)CC3)c2N(Cc2ccc(Br)cc2)C1=O (stereo not given)	7.3	0.4	-5.8	0.5	/	0.0	0.8	44.3
O=C(/C=C/Nc1ccc(Br)cc1F)c1ccccc1	15.3	-5.8	3.3	-3.5	-2.5%	0.3	-7.9	-0.3
S=C1NCCC12C(=S)Nc1ccccc12 (stereo not given)	-1.0	-0.2	-2.3	-3.7	/	3.0	-12.4	-15.4
O=C(c1cccc(S(=O)(=O)Nc2ccc(Br)cc2)c1)N1CCC1	-2.7	-0.4	-0.9	-0.3	4.3%	0.7	-6.6	-4.6
COc1ccc(CCNC(=O)CS(=O)(=O)c2cn(CC(=O)N3CCCC3)c3ccccc23)cc1OC	-8.5	0.8	0.4	7.2	-1.5%	0.1	-0.6	-10.7
CCn1c(C)c(C(C)=O)c(N2CCN(C(c3ccccc3)c3ccccc3)CC2)nc1=S	-4.5	0.9	1.5	11.6	-6.5%	57.3*	-11.6	41.3
Cc1cccc(N2C(=O)c3cccc4c(N(C)CCO)ccc(c34)C2=O)c1	5.1	0.1	19.7*	/	-6.8%	-163.5	5.7	17.4
COc1ccc(C(=S)N2CCN(S(=O)(=O)c3ccccc3)CC2)cc1	-6.6	-0.3	3.4	5.4	2.1%	-1.4	1.2	1.3
O=c1oc2ccc(Cl)cc2cc1-c1nnc(Nc2cccc(C(F)(F)F)c2)s1	/	0.3	-5.8	-1.9	15.9%	1.4	-0.3	-14.8
CCc1ccc(N(CC(=O)NC2CCCCC2)C(=O)CCC(=O)Nc2ccccn2)cc1	-0.3	0.6	4.6	-4.4	/	-2.7	-9.8	-8.4
CC(C)c1ccc(CNc2c([N+](=O)[O-])c(=O)oc3ccccc23)cc1	7.8	0.3	-4.8	-0.9	25.2%	1.5	-12.3	4.0
COc1ccc(NC(=O)COC(=O)CCNS(=O)(=O)c2ccc(Cl)cc2)cc1	-4.1	0.3	-3.5	-33.2	/	-3.1	-5.6	1.4
Cc1ccc2[nH]c3c(c2c1)CCN1C(=O)OC(C)(C)C31C (stereo not given)	-4.9	0.4	2.0	1.4	-9.1%	-1.7	32.9	-13.0
COCCCNC(=O)c1ccccc1N(Cc1ccccc1)S(=O)(=O)c1ccccc1	1.0	0.1	-1.0	-13.8	/	-3.6	5.7	14.3
N#CC1=C(N)SC(N)=C(C#N)C1c1ccoc1	6.0	1.0	0.1	/	?	40.1*	5.4	-9.9
CC(=O)N1CCN(S(=O)(=O)c2ccccc2)C1c1ccccc1 (stereo not given)	-13.3	1.9	3.2	/	1.7%	6.9	2.3	-18.4
COc1ccc(NC(=O)c2ccc(C#CC(C)(C)O)cc2)cc1	3.4	0.9	0.9	/	/	0.3	-21.1	-16.9
Cn1c(C(=O)O)c(CC(=O)NCC2COc3ccccc3O2)c2ccccc21 (stereo not given)	-11.7	-0.6	-1.9	/	2.9%	4.6	3.8	-1.8
(listing goes on)
SMILES	Beta cell apopt	A1 inh	LANA-H2A inh	MLL AF4-AF9 inh	Vif A3G	RanGTP-Impb inh	Calb FLC	T cruzi repl
O=C(CSc1ccc2c(c1)OCCO2)NCCc1ccc(Cl)cc1Cl	-11.0	-0.5	-3.9	/	?	-3.5	30.2	16.0
Cc1c(Cl)cccc1NC(=O)c1ccco1	5.6	0.7	0.4	-1.3	-6.3%	3.4	-8.0	-15.7
CCC(C)(C)C1CCc2[nH]nc(C(=O)NC(C)C)c2C1 (stereo not given)	7.6	0.5	-1.1	-4.8	/	/	/	/
CCCCOC(=O)C1C2C=CC3(CN(CCc4ccccc4)C(=O)C13)O2 (stereo not given)	-5.6	-0.1	-7.4	1.8	2.3%	1.4	-4.5	-5.3
CCCCN(CC(O)COc1cccc(C)c1)CC(O)COc1cccc(C)c1 (stereo not given)	6.1	0.7	-1.6	2.1	1.0%	0.4	1.4	20.9
CC(C)CNC(C)C(=O)Nc1ccc(S(N)(=O)=O)cc1 (stereo not given)	-2.2	-0.5	0.9	-2.2	23.2%	0.8	-0.2	-9.4
COc1ccc(OC)c(NC(=O)CSc2nnc(-c3ccco3)n2-c2ccc(C(=O)O)cc2)c1	4.6	0.1	-0.1	/	0.5%	6.8	3.0	16.0
COc1ccc(-c2csc(NC(=O)c3ccccc3S(C)(=O)=O)n2)cc1	-5.6	0.3	-2.0	3.4	-3.7%	0.2	2.3	-10.8
C/C(=N\OCC(=O)NCC(F)(F)F)c1cc2ccccc2o1	2.9	-0.2	0.7	0.8	-0.8%	1.8	24.6	12.3
O=C(O)CC1SC(N/N=C/c2ccc(Br)cc2)NC1=O (stereo not given)	-1.3	0.0	-2.5	-2.8	0.6%	-1.7	11.2	-16.8
CCOC(=O)N1CCC(Nc2c(NCCCN3CCN(CC)CC3)c(=O)c2=O)CC1	-0.7	0.1	1.7	/	-2.0%	6.0	-0.8	-14.1
O=C(O)C(Cc1c[nH]c2ccccc12)N1C(=O)C2C3c4ccccc4C(c4ccccc43)[C@@H]2C1=O (stereo not given in full)	-1.7	0.6	1.0	-17.9	3.1%	2.4	1.2	-6.5
CSCCC(NC(C)=O)C(=O)OCC(=O)N(c1ccccc1)c1ccccc1 (stereo not given)	-4.6	0.0	-6.4	/	0.7%	1.6	-1.2	-17.8
CCOc1ccc(C2CC(=O)N(Nc3ccc([N+](=O)[O-])cc3[N+](=O)[O-])C2=O)cc1 (stereo not given)	-3.5	-0.3	6.0	0.6	/	-0.6	-2.0	-8.2
CC(C)CCNC(=O)CCCc1ccccc1	-9.3	0.3	7.1	-14.5	16.4%	1.1	-4.0	4.8
CC(=O)c1c(N2CCN(c3ccccn3)CC2)nc(=S)n(-c2ccccc2)c1C	0.4	0.0	5.0	12.5	-6.1%	57.0*	-1.7	-5.0
CC(C)(C)OC(=O)C[C@@H]1C/C=C\C[C@@H](CC(=O)N[C@@H](CO)Cc2ccccc2)C(=O)N2CCC[C@H]2COC1=O	-4.5	0.0	-4.4	2.9	/	/	/	/
Cc1sc2nc3c4ccccc4c(NCc4ccco4)nn3c(=O)c2c1C	2.2	-7.0	-0.3	/	2.6%&12.8%	/	/	/
O=C(Oc1ccccc1)N1CCCC1	/	1.2	-4.4	-10.4	-4.4%	6.6	4.1	-7.3
CCC(=O)c1ccc(OCc2ccc(C(=O)OC)cc2)cc1	-5.6	-1.7	14.3*	1.7	-4.7%	-1.3	-2.2	-4.2
CC(NCc1cc(Br)ccc1OCC(N)=O)C12CC3CC(CC(C3)C1)C2 (stereo not given)	-0.2	0.1	-0.1	-3.5	-4.2%	0.3	0.2	13.2
CCS(=O)(=O)N1CCC(C(=O)Nc2ccc3c(c2)CCC3)CC1	1.2	0.8	-1.3	1.5	/	-2.2	-1.5	-5.9
CCOc1ccc(N(Cc2cc3ccc(C)cc3[nH]c2=O)C(=O)COC)cc1	-3.2	0.3	2.7	/	-4.0%	-5.3	1.2	9.4
Cc1nn(CC(=O)NCc2cccnc2)c(C)c1[N+](=O)[O-]	-0.6	-0.2	6.0	-3.7	12.8%	0.2	1.4	-2.1
CCOC(=O)C1=NN(c2ccccc2)C2=NC(C)=C(C(=O)OC)C(c3cccs3)N12 (stereo not given)	-3.6	-0.6	0.8	/	-11.7%	4.9	-21.8	-2.4
(listing goes on)
SMILES	Beta cell apopt	A1 inh	LANA-H2A inh	MLL AF4-AF9 inh	Vif A3G	RanGTP-Impb inh	Calb FLC	T cruzi repl
COC(=O)C1=C(C)NC(=S)NC1c1sccc1C (stereo not given)	-1.9	-0.4	1.8	-2.2	?	-0.7	28.0	-1.0
Cc1ccnc(Nc2nc(-c3ccc(O)c(O)c3)cs2)c1	9.0	0.6	2.8	40.9*	13.6%	-0.5	34.6	-20.9
CC(=O)Nc1ccc(NC(=O)CSc2ccc(C)cc2)cc1	-5.0	-1.2	-1.3	/	4.0%	-1.8	-1.5	-8.3
CCCCc1nc(NCCO)c(C#N)c2c1CCCC2	8.1	0.3	-3.0	0.8	2.3%	4.5	1.0	3.1
Cc1ccc(SCC(=O)Nc2oc(C)c3c(C)n[nH]c(=O)c23)cc1C	1.8	0.1	4.7	0.6	-5.8%	/	/	/
O=C(Nc1ccccc1Cl)c1cnccn1	-12.2	-0.2	2.9	/	2.4%	1.4	-24.6	1.6
O=C(O)c1ccc(S(=O)(=O)N2CCCC2)cc1	-4.7	0.6	0.7	-2.7	/	-4.3	-2.8	5.8
CCN(c1ccc(OC)cc1)S(=O)(=O)c1nnc(NC(=O)C(C)C)s1	-4.4	1.0	1.8	-1.5	7.9%	?	-1.0	-11.2
O=[N+]([O-])c1ccc(NC(=S)N2CCN(c3ccccn3)CC2)cc1	-1.9	-1.8	-1.7	0.4	/	3.2	-0.4	-0.7
CN(C)CCCNC(=O)c1ccc(-c2cc(O)c3ncccc3c2)cc1	-9.8	1.0	5.9	87.3*	/	/	/	/
COC(=O)C1CN(C(=O)C(C)Oc2ccc(C(C)C)cc2)c2ccccc2O1 (stereo not given)	-1.9	0.2	-2.6	-1.3	-11.7%	-2.2	0.1	-9.5
CC(=O)N1N=C(c2ccccc2O)OC1(C)CC(=O)Nc1ccccc1 (stereo not given)	-6.1	0.4	/	/	-8.0%	2.1	17.4	-1.0
CCOC(=O)C1C(c2ccccc2)N(C)OC1(O)C(F)(F)F (stereo not given)	-10.1	1.8	-6.2	-0.5	9.9%	-2.5	-0.8	-17.9
Nc1n[nH]c(-c2ccc([N+](=O)[O-])cc2[N+](=O)[O-])n1	0.3	-0.1	-3.1	-1.6	0.6%	3.3	0.7	8.0
COc1ccc2nc(SCC(=O)Nc3ccc4[nH]c(=O)[nH]c4c3)[nH]c2c1	-0.2	-0.2	-10.2	-15.9	4.0%	/	/	/
COc1ccc(S(=O)(=O)N2Cc3ccccc3CC2C(=O)N2CCOCC2)cc1 (stereo not given)	-5.3	-0.1	1.8	-69.2	/	-2.9	-5.2	-3.8
